Compound activity: PubChem, ICCB-Longwood Screening Facility, Harvard Medical School
RVFV N-RNA inh – RVFV nucleocapsid-RNA interaction inhibition | P21700 | RVFV N-RNA binding, fluorescence polarization; active compounds read low | % bound, % (no concentration beside the values) | 20,000 tested, 0.1% active | AID 651828;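 active = between 0 and 58% in either replicate with normal brightness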;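 also: 100 nL library stock added to about 12 µL; 100% = protein and probe without compound and 0% = probe alone; numbers are from one replicate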
Target sequence (P21700 whole entry, looked up): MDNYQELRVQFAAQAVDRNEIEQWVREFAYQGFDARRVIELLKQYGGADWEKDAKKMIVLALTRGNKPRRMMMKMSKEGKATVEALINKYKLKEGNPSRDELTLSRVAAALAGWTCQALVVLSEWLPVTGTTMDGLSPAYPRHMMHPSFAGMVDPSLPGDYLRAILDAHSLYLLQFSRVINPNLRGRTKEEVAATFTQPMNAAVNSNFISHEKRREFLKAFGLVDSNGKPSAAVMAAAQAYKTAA
* = called active by the depositor; & = joins results of further samples. Only part of the results is shown (hit frequency here may not be typical).

SMILES	RVFV N-RNA inh
COc1ccccc1Cn1c(N)c(C(N)=O)c2nc3ccccc3nc21	102
CSC(=NC(C)C)NC#N	96
O=C(C1CC1)N1CCN=C1SCc1ccc(C(F)(F)F)cc1	92
O=C(Cn1nc(-c2ccco2)ccc1=O)NCc1ccco1	100
Cc1noc(C)c1NC(=O)Nc1ccc(N(C)C)cc1	107
CSc1nn2c(=O)c(Cc3ccccc3)nnc2s1	98
CC(=O)N1CCN(C(=S)c2ccc(C(C)(C)C)cc2)CC1	88
CSc1ncnc2c1nnn2Cc1ccccc1Cl	94
N#CC(C#N)=Cc1ccc(Cl)s1	95
CN(C)CCOC(=O)COc1ccc(Cl)cc1	100
CS(=O)(=O)N1CCCC(C(=O)N2CCN(c3ccc(F)cc3)CC2)C1 (stereo unspecified)	91
O=C(NCC12CC3CC(C1)CC(CNC(=O)N1CCCC1)(C3)C2)N1CCCC1	91
Fc1cccc(/C=N/N=C/c2cccc(F)c2)c1	92
COC(=O)c1cc(=O)n2c(c1C(=O)c1cccs1)SCC2	92
CCc1nc(C)cc(CN(C)C)c1O	94
S=C1NCN(C2CCCC2)CN1	97
N#CC(C#N)=Cc1ccc(O)c(Cl)c1	97
CCOC(=O)c1nn(-c2ccc(F)cc2)c(=O)cc1OCC(=O)NC1CCCC1	87
O=C(c1ccccc1)c1cncc(Br)c1	96
O=C(NC1CCCCC1)C(=S)NC1CCCC1	96

The last 12 compounds of the section above lead into the next.
SMILES	RVFV N-RNA inh
N#CC(C#N)=Cc1ccc(Cl)s1	95
CN(C)CCOC(=O)COc1ccc(Cl)cc1	100
CS(=O)(=O)N1CCCC(C(=O)N2CCN(c3ccc(F)cc3)CC2)C1 (stereo unspecified)	91
O=C(NCC12CC3CC(C1)CC(CNC(=O)N1CCCC1)(C3)C2)N1CCCC1	91
Fc1cccc(/C=N/N=C/c2cccc(F)c2)c1	92
COC(=O)c1cc(=O)n2c(c1C(=O)c1cccs1)SCC2	92
CCc1nc(C)cc(CN(C)C)c1O	94
S=C1NCN(C2CCCC2)CN1	97
N#CC(C#N)=Cc1ccc(O)c(Cl)c1	97
CCOC(=O)c1nn(-c2ccc(F)cc2)c(=O)cc1OCC(=O)NC1CCCC1	87
O=C(c1ccccc1)c1cncc(Br)c1	96
O=C(NC1CCCCC1)C(=S)NC1CCCC1	96
CCN(CC)c1ccc(-c2nocc2C#N)cc1	90
CNCCNS(=O)(=O)c1ccc(N2C(=O)CC3(CCCC3)C2=O)c(Cl)c1	94
NC(=S)N=Nc1c(O)[nH]c2ccccc12	88
OC(CSc1nc(-c2ccccc2)ns1)C(F)(F)F (stereo unspecified)	98
CN=C(NC#N)NCCSCc1nc[nH]c1C	89&98&97
Cc1cccn2cc(CNC(=O)C3CCCCC3)nc12	94
Cc1ccc(S(=O)(=O)c2ccccc2)cc1S(=O)(=O)N1CCCCC1	98
CCCOc1ccc(-c2nc(=S)[nH][nH]2)cc1	88
Cc1cc(-c2nc3ncccc3o2)ccc1NC(=O)c1ccccc1	92
CN(C)/C=C(\C#N)C(=O)N(C)c1ccc(F)cc1F	109
CN(C)c1ccc(C=NCCCN2CCOCC2)cc1	110
Cc1cnc(NC(=O)C2=C(O)c3ccccc3S(=O)(=O)N2C)s1	98&90&94
Nc1nccc(-c2nn(-c3ccc(F)cc3)ccc2=O)n1	97
CCCCNC(=S)NC1CCCC1	96
COC(=O)N/N=C\c1c(C)n(Cc2ccccc2)c2ccccc12	92
S=C(Nc1ccc2c(c1)OCO2)Nc1cnccn1	98
O=C(O)C(Cl)Cl	101
Cc1cc(C)c(NC(=O)CN2C(=O)CCC2=O)c(C)c1	101
Clc1ncnc2sc3c(c12)CCC3	93
COC(=O)c1ccsc1NC(=O)c1cccc(S(C)(=O)=O)c1	91

No new results follow: an excerpt of the list.
SMILES	RVFV N-RNA inh
Cc1cc(C)c(NC(=O)CN2C(=O)CCC2=O)c(C)c1	101
Clc1ncnc2sc3c(c12)CCC3	93
COC(=O)c1ccsc1NC(=O)c1cccc(S(C)(=O)=O)c1	91

Next part
SMILES	RVFV N-RNA inh
Cc1ccc(S(=O)(=O)Nc2ccccc2C(=O)Nc2nccs2)cc1	103
O=C(CC1(O)C(=O)N(Cc2cccc(F)c2)c2ccccc21)c1ccco1 (stereo unspecified)	108
CCOC(=O)C1CCCN(C(=O)C2CCCCC2)C1 (stereo unspecified)	95
CCn1c(NC(=S)Nc2ccccc2)nc2ccccc21	92
COC(=O)c1ccccc1S(=O)(=O)N1CCN(c2ncccn2)CC1	96
Fc1c(F)c(C(F)(F)F)c(F)c(F)c1Sc1nc2ccccc2o1	95
O=c1oc2ccccc2cc1-c1nc(C2CC2)cs1	96
C=CCN=Cc1c(O)[nH]c2ccccc12	94
C=CCn1c(=NC(=O)CCCC)sc2cccc(OC)c21	97
O=C(O)CC[N+](=O)[O-]	93
CCOc1ccc(CNc2ccc(NC(=O)c3ccco3)cc2)cc1OCC	92
O=c1[nH]cc(N=Cc2ccc3c(c2)OCO3)c(=O)[nH]1	94
O=c1c(O[C@@H]2O[C@H](CO)[C@@H](O)[C@H](O)[C@H]2O)c(-c2ccc(O)c(O)c2)oc2cc(O)cc(O)c12	96
O=S(=O)(c1ccc(NC(=S)NC2CCCCC2)cc1)N1CCOCC1	99
Cc1ccccc1/C=N/NC(N)=S	100
CC(C)(C)c1oc2cc(Br)c(O)cc2c1C(=O)O	76
O=c1[nH]nc(Sc2ncccc2C(F)(F)F)n1C1CCCCC1	90
Cc1nc2ccccc2c(=O)[nH]1	98
C#CCOc1ccc(OC)cc1/C=C(/C#N)c1ccc(C#N)cc1	98
CCc1ccc(S(=O)(=O)NCc2cn3ccsc3n2)cc1	95
COc1cccc(C2C(C(=O)/C=C/c3ccco3)=C(O)C(=O)N2CCN2CCOCC2)c1 (stereo unspecified)	95
O=C(Nc1cccc(C(F)(F)F)c1)c1cccnc1N1CCCC1	100
CCN(Cc1ccccc1)C(=O)c1ccccc1-c1nc(-c2cccc(C)c2)no1	93
COc1ccc(OCCCN2C(=O)NC(C)(C)C2=O)cc1	99
Cc1ccc(N(C(=O)c2ccc3c(c2)OCO3)C2C=CS(=O)(=O)C2)cc1 (stereo unspecified)	106
NC(N)=[N+]1CCc2ccccc2C1	106
O=C(CN1CCN(c2ccccc2)CC1)NCc1ccccc1	91
NC(=O)c1ccc2[nH]ccc2c1	101&91
CCOc1ccc(NCCC(=O)c2ccc3c(c2)OCO3)cc1	99
N/C(=N\c1nc2c(c(=O)[nH]1)CCC2)Nc1ccccc1C(F)(F)F	87
O=C(c1cc2ccccc2oc1=O)N1CCN(Cc2ccc(Cl)cc2)CC1	91
COc1c(O)cnn(C(C)(C)C)c1=O	96
COc1ccc(-c2nn(CN3CCC(C(N)=O)CC3)c(=S)n2-c2ccccc2)cc1OC	81
Cc1cn([C@H]2C[C@@H](N=[N+]=[N-])[C@@H](CO)O2)c(=O)[nH]c1=O	102
O=C1c2ccccc2C(=O)N1CCCn1ccnc1	101
CC(=O)Oc1ccc2cc(-c3ccc4c(c3)OCCO4)c(=O)oc2c1	93
O=C(NCCCSc1ccccn1)Nc1nccs1	86
O=C(CC(NCCc1ccccc1)C(=O)O)Nc1ccc(O)cc1 (stereo unspecified)	103
NNC(=O)Nc1ccc(C(F)(F)F)cc1Cl	96
CC(=O)Oc1ccc2c(=O)c(-c3cc4ccccc4o3)coc2c1	93
O=C(O)c1ccc(Nc2nc3ccccc3nc2NS(=O)(=O)c2cccs2)cc1	96
O=C(C1CC1)N1CCN(c2ccc(F)cc2)CC1	94
Cc1nccc2c1[nH]c1ccccc12	93
C(=N\c1nc2ccccc2s1)/c1cccnc1	98
O=C(NCCc1ccccc1)c1nc2ncccn2n1	97
Cc1cc(C)n2ncc(/C(N)=N/OC(=O)Nc3ccccc3)c2n1	96
COC(=O)Nc1sc2c(c1C(=O)OC)CCC2	98
CCOC(=O)C1CCN(Cc2coc3ccc(Cl)cc3c2=O)CC1	103
COc1ccc(C)cc1NC(=S)NN1CCOCC1	93
CC(C)CC(N)C(=O)N1CCOCCOCCOCC1 (stereo unspecified)	82
CSC(=NC(=O)c1c(Cl)cccc1Cl)N1CCOCC1	94
Cc1oc2c(c1C(=O)O)C(=O)c1ccccc1C2=O	101
O=C1c2ccccc2-c2onc3c(N4CCCCC4)cc(N4CCCCC4)c1c23	90
CCCCNc1cc(C(=O)O)cc(S(N)(=O)=O)c1Oc1ccccc1	95&95&101
CCNC(=S)Nc1cc(OCC)c(N2CCOCC2)cc1OCC	97
CCOc1ccc(OCC)c(S(=O)(=O)N2CCN(C34CC5CC(CC(C5)C3)C4)CC2)c1	98
O=C(O)CCCC(=O)N1CCN(Cc2ccc3c(c2)OCO3)CC1	92
C[N+]1(C)C2CC(OC(=O)[C@H](CO)c3ccccc3)CC1C1OC12 (stereo partly specified)	98&96
C/C=C(/C)C(=O)O[C@H]1C(C)=C2[C@H]([C@@H]1OC(=O)CCCCCCC)[C@@](C)(OC(C)=O)C[C@H](OC(=O)CCC)[C@@]1(O)[C@H]2OC(=O)[C@@]1(C)O	91
O=C(Cn1cnc2c(cnn2-c2ccccc2)c1=O)NCc1ccco1	99

Other structures:
SMILES	RVFV N-RNA inh
CC1C/C(=N/N=C2/NC(=O)CS2)CC(C)(C)C1 (stereo unspecified)	88
CNC(=O)Nc1ccccc1NC(=O)NC	103
CC1(C)CCC(NC(=O)[C@@H](N)CCC(=O)O)CC1	92
CCC1(CC)Cc2ccccc2C(C2=C(O)CCCC2=O)=N1	88
COc1ccc(Cc2nnc(SCC(N)=O)n2Cc2ccccc2)cc1	97
COc1ccc(C(=O)N(CN2CCCC2=O)c2nccs2)cc1OC	96
Cc1onc(-c2ccccc2)c1C(=O)Sc1ccc(C(F)(F)F)cn1	95
O=C(c1ccccc1Cl)N1CCN(c2ccc(N3CCCCCC3)nn2)CC1	96
O=C1c2ccccc2C(=O)N1CCc1nn[nH]n1	94
CC1CCCCN1C(=O)C12CC3CC(CC(C3)C1)C2 (stereo unspecified)	95
CCOC(=O)C/C(C)=N/c1ccnn1-c1ccccc1	95
O=C(O)CSCC(=O)NC1CCSC1=O (stereo unspecified)	104
Oc1ccc(C(=S)N2CCN(Cc3ccccc3)CC2)cc1	87
Cc1ncc2ccccc2c1C#N	99
O=C(O)CCN(Cc1ccco1)S(=O)(=O)c1cccc2nsnc12	98
Cc1cc(=O)oc2cc(NC(=S)NCCN3CCCCC3)ccc12	92
CC(O)C(O)[C@H]1CNc2nc(N)[nH]c(=O)c2N1 (stereo partly specified)	93
CC1(C)Cc2c(sc(NC(=O)C3CC3)c2C(N)=O)C(C)(C)N1	94
O=S(=O)(NC1(C(F)(F)F)Oc2ccccc2O1)c1ccccc1	98
Cc1ccc(C(=O)COC(=O)c2ccccc2O)cc1	96
Cc1oc(-c2cccc(C(F)(F)F)c2)cc1C(=O)O	109
NS(=O)(=O)c1ccc(NC(=O)c2ccc(S(=O)(=O)N3CCc4ccccc43)cc2)cc1	89
O=C(Cn1c(=O)n(-c2ccccc2)c(=O)c2oc3ccccc3c21)N1CCCC1	94
CC(C)(C=O)Cc1cc(C(C)(C)C)c(O)c(C(C)(C)C)c1	93
NC(=O)CN1CCCC1=O	101
Cc1c(CSC(=N)N)c(C)c(CSC(=N)N)c(C)c1CSC(=N)N	102
COc1c[nH]n(C2CCCCC2)c(=O)c1=O	94
